GIV-Gai inh – blocks GIV peptide binding to rat Galpha-i3. P08753. Galpha-i3/FITC-GIV peptide fluorescence polarization, 90 min; hits give low values; scaled: aluminum fluoride 0%, vehicle 100%. percent of control (FP), % (test concentration not listed). 210,000 tested, 0.42% active;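 active = replicate mean at 85% of control or lower, very high polarization wells dropped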;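 note: wells of about 15 µL received 100 nL stock; the first replicate is given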
Target sequence (P08753 whole entry, looked up): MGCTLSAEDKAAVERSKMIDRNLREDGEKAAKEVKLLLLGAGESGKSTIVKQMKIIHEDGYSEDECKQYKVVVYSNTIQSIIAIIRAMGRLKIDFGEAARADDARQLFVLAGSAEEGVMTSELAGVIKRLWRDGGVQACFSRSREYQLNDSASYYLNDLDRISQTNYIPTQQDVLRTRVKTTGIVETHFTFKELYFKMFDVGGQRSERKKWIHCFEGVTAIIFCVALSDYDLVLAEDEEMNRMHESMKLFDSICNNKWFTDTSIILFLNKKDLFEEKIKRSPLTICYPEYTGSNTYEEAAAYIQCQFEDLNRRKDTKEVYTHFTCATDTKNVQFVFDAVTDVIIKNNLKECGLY
Sa growth 42C – S. aureus growth inhibition; S. aureus RN4220 growth, OD600, 20 h, 42 °C; hits give low values; relative growth, % (test concentration not listed); 170,000 tested, 0.53% active;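 active = growth at 42 °C up to 50% and 20 or more points under that at 30 °C, or under 10% at both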;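 note: 300 nL library stock went into each well; scaled to the means of positive and negative controls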
HCMV UL50-53 inh – cytomegalovirus nuclear egress complex inhibition; 190,000 tested, 0.15% active; HTRF UL50-UL53 interaction, normalized percent inhibition; inhibition, % (test concentration not listed); AID 1918969;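 active = both replicates at 50% or more, plus weaker picks with an unusually low signal ratio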;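 note: stock transfer was 100 nL into about 20 µL; 0% = negative control wells and 100% = wells with untagged competitor protein; inactives centre near -12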
Sa growth 42C second temp – recorded beside Sa growth 42C, whose call it bears; relative growth, %; measured here: growth at 30 °C;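 optical density after 20 h as mean of two plates; 100% = untreated growth and lower means inhibition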
The depositor's hits bear a star; . = not tested or not shown; & = joins results of further samples.

canonical_smiles | GIV-Gai inh | Sa growth 42C | Sa growth 42C second temp | HCMV UL50-53 inh
CN(Cc1ccccc1)c1nnc(NC(=O)NC2CCCC2)s1 | 108 | 112 | 90 | -2
COC(CNC(=O)c1ccc(/C=C2\Oc3ccccc3NC2=O)cc1)OC | 104 | 96 | 83 | -42
c1ccc(OCCN2CCN(c3ccccc3)CC2)cc1 | 105 | 104 | 92 | 4
Cc1nnc(SCc2ccccc2)[nH]c1=O | 98 | 99&114 | 99&92 | 9&-24
CCOC(=O)c1cc(S(=O)(=O)N(C)CC(=O)N2CCOCC2)cn1C | 115 | . | . | -8
COc1ccc(C2c3c(n(C)c4ccccc34)C(=O)N2CC(=O)Nc2cc(C)ccc2C)cc1 (stereo not given) | 105 | . | . | -1
Cc1ccc2c(c1)N(C(=O)CSc1nnc3n(Cc4ccco4)c(=O)c4sccc4n13)CCO2 | 98 | . | . | -1
COC(=O)c1cnc(N)nc1C(F)(F)F | 101 | 89 | 95 | -1
C=CCN=c1scc(-c2ccco2)n1/N=C/C1=CCC2CC1C2(C)C (stereo not given) | . | 95 | 85 | -17
CN(C)c1ccc(/C=C(\C#N)S(=O)(=O)c2ccc(Cl)cc2)c(F)c1C#N | 104 | 106 | 104 | 4
COc1cc(OC)cc(N2C(=O)CC(c3ccc(OC)c(OC)c3)CC2=O)c1 | 98 | . | . | -18
CCC1C(C#N)=C(SC)NC2=C1C(=O)CC(C)(C)C2 (stereo not given) | . | 98 | 77 | -23
O=C(Nc1nccs1)c1c2c(nc3ccccc13)C(=O)N(C1CCCCC1)C2 | 109 | . | . | -80
CN1CC(C#N)=C(NC2CCCCC2)C1=O | . | 89 | 86 | -24
Cc1ccc(S(=O)(=O)N2CCN(Cc3cc(Br)ccc3O)CC2)cc1 | 104 | 103 | 97 | -12
COc1cccc(-c2cc(C(=O)NCc3ccc(F)cc3)no2)c1 | 104 | 96 | 88 | -12
Cc1ccc(C2=N/C(=C\N3CCCCC3)C(=O)O2)cc1 | 100 | 92 | 74 | -76
Cn1c(=O)n(C)c2cc(Sc3ccc(F)cc3)c(NS(=O)(=O)c3ccc(Cl)cc3)cc21 | 104 | . | . | -34
Cc1ccc(C)c(N2CCN(C(=O)CN(C)S(=O)(=O)c3ccc4[nH]c(=O)oc4c3)CC2)c1 | 106 | 96 | 89 | -15
Cc1ccc(C)c(NS(=O)(=O)c2cc3c(cc2Cl)NC(=O)CO3)c1 | 108 | 107 | 79 | .
CC1(C(=O)NC2CCCCC2)Cn2c(cc3ccccc32)C(=O)N1Cc1ccccc1 (stereo not given) | 101 | . | . | 2
NC(C(=O)O)C(C(F)(F)F)C(F)(F)F (stereo not given) | 103 | 97 | 96 | -14
O=C1CC(c2cc(F)cc(F)c2)Cc2nc(N3CCOCC3)ncc21 (stereo not given) | 93 | . | . | -22
CC(C)(C)OC(=O)N1CC(O)CC1C(=O)N1CCOCC1 (stereo not given) | . | 106 | 96 | -2
O=C(NC1CCCC1)C1CCCN(c2ccc(-c3ccc(F)cc3)nn2)C1 (stereo not given) | 106 | . | . | -9
CCOC(=O)c1ccc(N)c(N)c1 | 122 | 98 | 82 | -20
CCc1ccc(CN2C(=O)c3ccccc3C2C(=O)NC2CCCCCC2)cc1 (stereo not given) | 105 | 108 | 81 | -9
COC(C(=O)NCc1ccc2c(c1)OCO2)c1ccccc1 (stereo not given) | 101 | 115 | 96 | -8
COc1cc2c3c(c1OC)C1(C=CC(=O)C=C1)CC3[N+](C)(C)CC2 (stereo not given) | 107 | 99 | 105 | .
CC(=O)N1CCN(CC(=O)Nc2ccc(S(=O)(=O)N(C)C)cc2)CC1 | . | 96 | 93 | 2

The final 3 entries of the part above are carried over, then new ones follow.
canonical_smiles | GIV-Gai inh | Sa growth 42C | Sa growth 42C second temp | HCMV UL50-53 inh
COC(C(=O)NCc1ccc2c(c1)OCO2)c1ccccc1 (stereo not given) | 101 | 115 | 96 | -8
COc1cc2c3c(c1OC)C1(C=CC(=O)C=C1)CC3[N+](C)(C)CC2 (stereo not given) | 107 | 99 | 105 | .
CC(=O)N1CCN(CC(=O)Nc2ccc(S(=O)(=O)N(C)C)cc2)CC1 | . | 96 | 93 | 2
COc1cccc(OCCNC(=O)c2cccc3ccccc23)c1 | . | 109 | 86 | -1
COc1ccc(CCNC(=O)Cn2nnc(-c3ccc(C(F)(F)F)cc3)n2)cc1OC | 102 | 102 | 78 | -8
COC(=O)[C@@H](NC(=O)c1ccc(Cl)cc1Cl)C(C)C | . | 96 | 93 | -32
C/C(=C\C(=Nc1ccc2c(c1)OCO2)c1ccccn1)c1ccccn1 | 93 | 110 | 85 | .
CC1=C(C(N)=O)C(c2ccccc2)NC(=S)N1 (stereo not given) | 100 | 99 | 91 | -2
CC(C(=O)NC1=NCCS1)(C(F)(F)F)C(F)(F)F | 105 | 107 | 104 | 2
N#Cc1nc(-c2ccccc2)oc1N1CCCCC1 | . | 109 | 84 | -18
CCCCOc1ccc(S(=O)(=O)n2nc(C)c(S(=O)(=O)N3CCCCCC3)c2C)cc1 | 102 | 90 | 88 | .
Cc1c(C(=O)Nc2ccccn2)oc2ccccc12 | 112 | 121 | 107 | 8
O=C1COc2cc(S(=O)(=O)CCC(=O)N3CCN(c4ccccc4F)CC3)c(Cl)cc2N1 | 99 | 121 | 83 | .
CCOC(=O)c1c(NC(=O)c2cc(OC)c(OC)c(OC)c2)sc(C(=O)Nc2ccc(OC)cc2OC)c1C | 104 | . | . | -17
Nc1ccccc1NC1=CC(=O)CC(c2c(F)cccc2Cl)C1 (stereo not given) | 98 | . | . | -12
O=C(O)c1nc(Cl)c(Cl)c(Cl)c1Cl | 103 | 91 | 90 | -9
CCc1nc(-c2ccc3c(c2)CCN3C(=O)CCc2c[nH]c3ccccc23)no1 | 107 | . | . | -22
CS(=O)(=O)Nc1ccc(C(=O)NCc2ccccc2)cc1 | 102 | 97 | 98 | -6
CC(C)CCNC(=O)c1cc(-c2ccco2)nc2ccccc12 | . | 103 | 98 | 4
COc1ccc2c(c1)CCC/C2=N/NC(=O)c1ccoc1C | 105 | 89 | 87 | -34
CCOC(=O)c1ccc(NC(=O)CSc2nccn2Cc2ccc(OC)cc2)cc1 | 109 | 136 | 89 | .
Cc1cc(=O)oc2cc(OCC(O)CNC3CC3)ccc12 (stereo not given) | . | 88 | 92 | -12
CCOc1ccc(CCNC(=O)CCCn2c(=O)c3cccn3c3cccnc32)cc1 | 102 | 109 | 87 | .
Cn1c(=O)c2c(nc(NCc3ccccc3)n2Cc2ccccc2Br)n(C)c1=O | 103 | . | . | -19
COC(=O)c1c(NC(C)=O)c2c(C)c(C)sc2n1Cc1cccc(C)c1 | 100 | 88 | 97 | 3
O=C(CN1C(=O)C2CCCC2=Nc2ccccc21)NCc1ccc(Cl)cc1 (stereo not given) | 107 | . | . | 14
O=C(Nc1ccc(OC(F)(F)F)cc1)C1CCCN(S(=O)(=O)c2cccc3nonc23)C1 (stereo not given) | 116 | 89 | 92 | -17
Cc1ccccc1Nc1nn2c(=O)c3ccc(C(=O)NCc4ccccc4Cl)cc3nc2s1 | 103 | 75 | 69 | .
CN(C)c1ccc(-c2nc(-c3cc4cc(Cl)ccc4oc3=O)cs2)cc1 | 104 | 92 | 86 | .
CCOc1cc(/C=N\NC(=O)OC)ccc1OC(=O)c1ccco1 | 105 | 93 | 79 | -35
Cc1ccc(N2CCN(C(=O)C3CCN(c4ncnc5c4nc4n5CCCCC4)CC3)CC2)c(C)c1 | 102 | 97 | 93 | .
O=C(CCN1CCOCC1)c1ccc(O)cc1 | 104 | 102 | 95 | 14
COC(=O)C1=C(CN2CCCCC2)NC(=O)NC1c1ccccc1C (stereo not given) | 106 | 100 | 79 | 2
O=c1[nH]c2cc3ccccc3cc2nc1-c1ccccc1NCc1ccc(F)cc1 | 101 | . | . | 12
Cc1ccc2c(c1C)NC(=O)CC2c1ccc(Cl)cc1Cl (stereo not given) | 101 | 104 | 100 | 0
Cc1ccc(-n2ncc3c(N(CC(C)C)CC(C)C)ncnc32)c(C)c1 | 96 | 76 | 68 | .
CC(C)CNC(=O)c1cc(S(=O)(=O)N2CCCC2)c(Cl)cc1N1CCCC1 | 98 | 134 | 89 | -3
CSc1ncc(C(=O)NCc2ccccc2F)c(-c2ccccc2)n1 | 109 | 108 | 116 | .
COc1cccc(/C=N/NC(=O)c2ccccc2O)c1 | 97 | 104 | 94 | -32
S=C(NCCCN1CCOCC1)N(Cc1ccccc1)Cc1ccccc1 | 98 | 92 | 80 | .
NNC(=O)CNC(=O)c1ccco1 | 103 | 103 | 100 | 1
CCOc1ccc(CNC(=O)C2CCCN(c3nn4cc(-c5ccc(OC)cc5)nc4s3)C2)cc1 (stereo not given) | 102 | 95 | 69 | .
O=C(CSc1nc(=O)[nH]c2c1CCC2)NCc1ccc(F)cc1 | 97 | 116 | 92 | .
Cn1c2c(c3ccccc31)C(C(=O)NCc1ccccc1)N(C1CC1)C(=O)CS2 (stereo not given) | 98 | . | . | -12
CC(C)NS(=O)(=O)c1ccc2nc(NC(=O)c3cccnc3)sc2c1 | 108 | 90 | 65 | -29
CC(C)=N/N=C1\NC(=O)C(Cc2ccccc2)S1 (stereo not given) | 101 | 120 | 83 | -6
Cc1ccc(-c2cnc3c(-c4ccccc4)cnn3c2N)cc1 | 101 | . | . | 8
COc1cc(CN(C)Cc2cc(=O)n3ccsc3n2)ccc1OC(F)F | . | 100 | 98 | -5
CCc1nn(CC(=O)NC(C)CC)c(=O)c2cc3c(OC)cccc3n12 (stereo not given) | 102 | 99 | 90 | 11
CC1(C)C(c2ccccc2)=[N+]([O-])C2(CCCCC2=NNC(N)=O)N1O (stereo not given) | . | 96 | 88 | -9
COc1cc(NS(=O)(=O)c2ccc(NC(=O)c3ccc(OC)c(Br)c3)cc2)nc(OC)n1 | 105 | 97 | 79 | -35
COc1ccc(Oc2nc3c(c(=O)n(Cc4ccc(Br)cc4)c(=O)n3C)n2C)cc1 | 105 | 116 | 93 | -9
C=CCOC(=O)C1=C(C)N(C)C(=O)NC1c1cc2c(cc1Br)OCO2 (stereo not given) | 97 | . | . | -13
Cc1[nH]c(C)c(S(=O)(=O)N2CCC(C(=O)N(C)C3CCCCC3)CC2)c1C(=O)N1CCCCC1 | 108 | . | . | -37
COc1cc(C(=O)Nc2ccc(-c3nc4ccccc4o3)c(O)c2)cc(OC)c1OC | 111 | 100 | 104 | -13
CC1CCC(Nc2nnnn2-c2ccccc2)CC1 (stereo not given) | 106 | 63 | 58 | 10
C=CCn1cnc2c(c1=O)c1nc3ccccc3nc1n2-c1cccc(C)c1 | 115 | 91 | 97 | -33
COc1cc(C(=O)Oc2ccc(NC3=NS(=O)(=O)c4ccccc43)cc2)cc(OC)c1OC | 103 | 106 | 87 | -8
CCOC(=O)NNc1nc2ccccc2n1Cc1ccccc1 | 103 | 116 | 94 | -7
Cc1csc(Nc2nc(N)c(C(=O)Nc3ccccc3)o2)n1 | 109 | 87 | 83 | -25
COc1ccc(/C=C/C2=CCN(Cc3ccccc3)CC2)cc1 | . | 117 | 101 | -9
CCCCC1CCC(C(=O)NCCc2csc(-c3ccc(OC)cc3)n2)CC1 (stereo not given) | 99 | . | . | -12
CCOC(=O)c1c(C)nc(-c2ccccc2)nc1N | 96 | 87 | 91 | -6

Additional compounds follow.
Compound,GIV-Gai inh,Sa growth 42C,Sa growth 42C second temp,HCMV UL50-53 inh
C(=N\N1CCOCC1)/c1nc(-c2ccccc2)n2ccccc12,.,93,93,-93
COc1ccc(CC(=O)O/N=C(\N)c2ccccc2)cc1,102,106,121,-4
CCN(CC(=O)Nc1ccc(NC(C)=O)cc1)CC(=O)Nc1ccc(S(=O)(=O)N(C)C)cc1,.,102,88,-12
Cc1ccc2oc(C(=O)Nc3ccc(S(=O)(=O)Nc4nc(C)cc(C)n4)cc3)cc(=O)c2c1,111,88,86,-40
N#CCC(=O)Nc1ccc(C(=O)OCC(=O)c2cc3ccccc3o2)cc1,.,74,85,-16
CCOc1ccc(Nc2oc(COc3ccccc3Cl)nc2C#N)cc1,116,77,75,.
N#C/C(=C\Nc1cc(C(F)(F)F)cc(C(F)(F)F)c1)S(=O)(=O)c1ccccc1,98,108,90,2
CCC(c1nc2ccccc2c(=O)n1-c1ccccn1)N1C(=O)c2ccccc2C1=O (stereo not given),102,106,97,-18
CCOC(=O)C1=C(CN(C)Cc2ccccc2)NC(=O)NC1c1ccc(OC)cc1 (stereo not given),105,92,81,.
O=C(C1CCCN(Cc2cccc(Cl)c2)C1)N1CCCCCC1 (stereo not given),106,100,86,.
CN(C)S(=O)(=O)c1cccc(C(=O)Nc2ccccc2)c1,104,102,98,-1
COc1ccc(CNC(=O)c2cccs2)cc1,99,105,96,-12
COC(=O)c1cc(Nc2cc(C)nc3ncnn23)cc(C(=O)OC)c1,101,101,72,-7
Cc1nc2cc(-c3ccc(Br)cc3)[nH]n2c(=O)c1Cl,98,100,90,-9
COc1ccc(C2C3=C(CC(c4ccc(O)cc4)CC3=O)Nc3onc(C)c32)cc1 (stereo not given),105,.,.,-21

Molecules from the list above containing two or more sulfur atoms (four):
Compound,GIV-Gai inh,Sa growth 42C,Sa growth 42C second temp,HCMV UL50-53 inh
Cc1ccc2c(c1)N(C(=O)CSc1nnc3n(Cc4ccco4)c(=O)c4sccc4n13)CCO2,98,.,.,-1
Cn1c(=O)n(C)c2cc(Sc3ccc(F)cc3)c(NS(=O)(=O)c3ccc(Cl)cc3)cc21,104,.,.,-34
CCCCOc1ccc(S(=O)(=O)n2nc(C)c(S(=O)(=O)N3CCCCCC3)c2C)cc1,102,90,88,.
CC(C)NS(=O)(=O)c1ccc2nc(NC(=O)c3cccnc3)sc2c1,108,90,65,-29

Screens deposited in PubChem by ICCB-Longwood Screening Facility, Harvard Medical School.

This is a random part of the collection; overall some 0.83% were active at least once.
